Env fusion inh – HIV envelope-mediated fusion inhibition; HeLa-JRFL Env/CEM21 cell fusion, luciferase; AID 651610; inhibition, % at 12.3 µM; 360,000 compounds, 1.1% hits;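 active = mean replicate inhibition score of at least 50 and every replicate individually at or above 50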;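 note: 0% = plate neutral controls and 100% = maraviroc near 300 nM; one replicate is shown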
eIF4H inh – inhibitors of RNA binding by human eIF4H | eIF4H fluorescence polarization binding assay | inhibition, % at 35 µM | 290,000 compounds, 0.94% hits;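 active = 50% or more with normal probe brightness, or confirmed in later tests; about a fifth of its hits are not listed in these tables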;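 note: calls also rest on retests at 20 µM and on dose response follow-up; 0% = protein and probe with vehicle and 100% = probe without protein; strong numbers were not always called active; many hits fall short of the cut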
MT1-MMP act inh – MT1-MMP (human) activation inhibition; P50281; HT1080 RFP-PRO-GFP cells, GFP/RFP ratio fluorescence, overnight; percent of plate control window, DMSO zero; GFP/RFP ratio change, % at 20 µM; 360,000 compounds, 0.061% hits; AID 651647;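 active = GFP/RFP ratio change of at least 30% with cell ATP level not reduced by more than half and red fluorescence within 50% of control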; note: strong numbers were not always called active
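Assay system: RFP-PRO-GFP reporter HT1080 cells; read-out basis: GFP/RFP fluorescence ratio; benchmarks: DMSO wells and RFP-L50D-GFP cells; doses: 20 µM single dose, 1% DMSO; schedule: overnight cell settling, then overnight compound exposure, 37 °C, 5% CO2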
Rce1 inh – inhibitors of yeast Ras-converting enzyme; 290,000 compounds, 0.27% hits; Q03530; AID 2563; yeast membranes, quenched prenylated peptide cleavage fluorescence; calls only;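 active = fall in fluorescence gain of 50% or more versus controls, with final raw signal at or below 3038400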;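 note: plate controls were neutral control wells for no effect and wells lacking membranes for full effect; tested at 10 µM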
CSC inhib – cancer stem cell inhibition; cancer stem cell-like cells viability, luminescence; 300,000 compounds, 1.1% hits; AID 2717; inhibition, % at 7.5 µM;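 active = mean at 75% or more and at least half the replicates too; tested in HMLE shEcad cells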;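 note: 0% = median of negative and 100% = median of positive control wells; the first replicate is given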
PABP FP inh – blocks human PABP binding to poly(A) RNA; fluorescence polarization; inhibition, % at 35 µM; 290,000 compounds, 1% hits;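 active = 50% or more with normal probe brightness, or confirmed in later tests; about a fifth of its hits are not listed in these tables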;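 note: calls also rest on retests at 20 µM and on dose response follow-up; controls were probe without protein and protein plus probe with vehicle; some compounds called inactive have numbers as strong as hits; many hits fall short of the cut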
Target sequence (P11940 whole entry, looked up): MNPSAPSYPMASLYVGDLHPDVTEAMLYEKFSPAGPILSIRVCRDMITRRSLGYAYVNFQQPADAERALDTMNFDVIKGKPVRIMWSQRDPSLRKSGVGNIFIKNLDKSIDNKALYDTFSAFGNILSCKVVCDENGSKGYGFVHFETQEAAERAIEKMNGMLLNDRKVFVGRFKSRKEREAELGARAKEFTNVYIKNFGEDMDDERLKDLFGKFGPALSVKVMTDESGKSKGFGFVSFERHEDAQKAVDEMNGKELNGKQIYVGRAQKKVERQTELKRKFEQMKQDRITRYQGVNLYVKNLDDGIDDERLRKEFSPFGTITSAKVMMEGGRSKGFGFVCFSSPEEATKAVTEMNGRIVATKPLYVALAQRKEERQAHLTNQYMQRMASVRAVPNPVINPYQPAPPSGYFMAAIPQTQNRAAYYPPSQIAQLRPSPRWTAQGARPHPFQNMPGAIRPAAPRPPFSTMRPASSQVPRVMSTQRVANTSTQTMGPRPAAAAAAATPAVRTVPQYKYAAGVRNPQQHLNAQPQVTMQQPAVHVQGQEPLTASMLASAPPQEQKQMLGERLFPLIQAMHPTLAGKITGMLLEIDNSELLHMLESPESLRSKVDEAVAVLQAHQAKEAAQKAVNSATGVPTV
UUG fidelity – modulators of start codon recognition fidelity in yeast; activity score, % at 18.7 µM; S. cerevisiae UUG-firefly luciferase reporter, luminescence/redox ratio; AID 602363; 350,000 compounds, 0.13% hits;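 active = replicate mean at a twofold rise or more, about +100% in these data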;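 note: firefly luciferase made from a UUG start codon reports start codon fidelity; reporter light over untreated wells divided by growth signal over untreated wells; some hits fall short of that in this replicate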
eIF4H inh retest – also measured in eIF4H inh; calls as there; inhibition, %; compound at 20 µM; confirmation average;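 mean of two retest wells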
PABP FP inh retest – further read-out of PABP FP inh, marked with its call; inhibition, %; compound at 20 µM; confirmation repeats;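 mean of two retest wells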
MT1-MMP act inh RFP – also measured in MT1-MMP act inh; calls as there; RFP signal change, %; measured here: RFP expression control read;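 0 = vehicle wells; hits needed this value within 50% of zero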
Numbers without * were called inactive; i = inactive; x = no result given; & = joins results of further samples. Only part of the results is shown; rates above refer to the full screens.

SMILES | Env fusion inh | eIF4H inh | MT1-MMP act inh | MT1-MMP act inh RFP | Rce1 inh | CSC inhib | PABP FP inh | UUG fidelity | others
COc1ccc(N2C(=O)CSC23C(=O)N2c4c(cccc43)C(C)=CC2(C)C)cc1 (configuration not stated) | x | 1 | -14 | -7 | i | -7 | -3 | -8
Cc1c(NC(=O)c2cnn3c2NC(c2ccc(Br)cc2)CC3C(F)(F)F)c(=O)n(-c2ccccc2)n1C (configuration not stated) | 23 | -8 | 5 | -3 | i | 4 | -2 | -8
CCn1c(CN2CCN(C(=O)c3ccco3)CC2)nc2c1c(=O)n(C)c(=O)n2C | -19 | -15 | 4 | 1 | i | -7 | 1 | 5
COc1ccc(Nc2nc(-c3cc4cccc(OC)c4oc3=O)cs2)cc1 | -26 | -2 | 4 | -2 | i | -19 | -6 | x
O=C(c1ccccc1)N1N=C(c2ccc(F)cc2)CC1c1ccc(F)cc1 (configuration not stated) | 9 | x | -2 | -4 | x | x | x | -16
O=C(NCC(=O)N1CCCCC1)c1ccc(Cl)cc1Cl | x | -7 | -2 | 2 | i | -19 | -6 | -26
COC(c1ccccc1)c1nnc(CCC(=O)N(C)CCOc2ccccc2)o1 (configuration not stated) | -29 | -1 | 2 | -1 | i | -1 | -11 | x
CC(NC(=O)c1cccnc1)C(=O)O (configuration not stated) | 10 | -8 | -2 | 0 | i | 11 | -4 | 1
COc1cc(Cl)c(C)cc1NC(=O)CSc1nc2ccccc2o1 | -5 | -4 | -5 | -4 | i | -5 | -8 | -11
CC(O)CC(C(=O)NNc1ccccc1)C(=O)NNc1ccccc1 (configuration not stated) | 13 | 3 | 3 | 5 | i | 92* | -8 | x

The closing two records of the part before are carried over, then new ones follow:
SMILES | Env fusion inh | eIF4H inh | MT1-MMP act inh | MT1-MMP act inh RFP | Rce1 inh | CSC inhib | PABP FP inh | UUG fidelity | others
COc1cc(Cl)c(C)cc1NC(=O)CSc1nc2ccccc2o1 | -5 | -4 | -5 | -4 | i | -5 | -8 | -11
CC(O)CC(C(=O)NNc1ccccc1)C(=O)NNc1ccccc1 (configuration not stated) | 13 | 3 | 3 | 5 | i | 92* | -8 | x
Cc1ccc(SCCC(=O)NC(C(C)C)C(C)C)cc1 | 17 | 1 | -5 | -2 | i | 2 | -8 | x
CCc1ccc2c(c1)/C(=C/C(=O)c1cccs1)C(=O)N2 | -58 | -9 | 1 | -10 | i | 50 | -4 | -13
CCOC(=O)N1CCN(C(=O)CN(C)S(=O)(=O)c2ccc3c(c2)c(=O)n(C)c(=O)n3C)CC1 | 0 | 0 | 2 | 5 | i | 3 | 4 | x
Cc1ccc(NC(=O)c2ccc([N+](=O)[O-])o2)cc1S(=O)(=O)N1CCOCC1 | -203 | -2 | -2 | -9 | i | 2 | -10 | x
O=C(Nc1ccccc1)O/N=C1\CCCCC1c1ccc([N+](=O)[O-])cc1[N+](=O)[O-] (configuration not stated) | x | 0 | 0 | 3 | i | -2 | 2 | -8
COc1ccc(NC(=O)CN(C)S(=O)(=O)c2cccc3cccnc23)cc1 | -5 | -2 | -3 | 5 | i | 5 | -1 | -6
FC(F)(F)c1ccc2nnc(-c3c(Cl)cccc3Cl)n2c1 | 51 | -4 | -6 | -2 | i | 9 | 1 | -7
COc1cc(-c2nc(CN3CCN(CC(C)C)C(=O)[C@@H]3C)c(C)o2)ccc1F | 11 | -5 | 0 | -5 | i | -5 | -6 | x
Cn1c(Cc2ccccc2)nnc1SCC(=O)Nc1ccc(N2CCOCC2)cc1 | -9 | 0 | 2 | 3 | x | -8 | 1 | -1
Cc1cc(NS(=O)(=O)c2ccc(NC(=O)CSc3nc4sc(C)c(C)c4c(=O)[nH]3)cc2)no1 | 5 | 1 | 2 | 2 | i | 6 | 6 | x
Cc1cc(C(=O)N/N=C/c2ccc([N+](=O)[O-])s2)n[nH]1 | -1 | 33 | -6 | -21 | i | x | 18 | -8
c1ccc(Cc2nc3ccccc3n2Cc2ccccc2)cc1 | 0 | 11 | -2 | -7 | i | 31 | -3 | -20
NNC(=O)c1ccc(Cn2cc(Cl)cn2)cc1 | x | -7 | 2 | 5 | i | -9 | 6 | -21
CC1(C)CC(=O)C(CC2CCCCC2=O)C(=O)C1 (configuration not stated) | 2 | -1 | x | x | i | -9 | -4 | -5
COc1ccc(NC(=O)Nc2ccc3c(c2)C(=O)N([C@H](C)CO)C[C@H](C)[C@@H](CN(C)S(C)(=O)=O)O3)cc1 | -18 | x | 5 | 4 | x | x | x | 8&-17
O=C(CSc1n[nH]c(-c2ccncc2)n1)c1ccccc1 | x | -11 | -5 | -3 | i | -5 | -7 | -18
C=CCC(C#Cc1ccccc1)N(C)C (configuration not stated) | x | -1 | 1 | 1 | i | 24 | 4 | -2
O=[N+]([O-])c1ccc(Nc2ccc(N3CCOCC3)cc2)c([N+](=O)[O-])c1 | 0 | -5 | 1 | -3 | i | 3 | -1 | x
Cc1ccc(S(=O)(=O)N(C)CC(=O)OCC(=O)N2CCCC2=O)cc1 | -8 | 4 | -4 | 3 | i | 4 | 23 | x
COc1ccc(CCNC(=O)C(=O)NCCOc2ccccc2)cc1OC | -2 | -5 | 1 | 3 | i | -8 | 84 | x | eIF4H inh retest=-8;PABP FP inh retest=8
CCN(CC)S(=O)(=O)c1ccc(C)c(NC(=O)CNCc2ccccc2OC)c1 | 8 | 0 | 1 | -5 | i | -9 | -13 | 12
O=C(NC1CCN(C(=O)NCc2ccccc2)CC1)c1ccccc1 | 1 | 3 | -1 | -2 | i | -13 | 12 | x
Cn1cncc1C#Cc1c(C=O)[nH]c2ccccc12 | 47 | x | -15 | 1 | x | 42 | x | -18
COc1ccc(NC(=O)CN(c2ccc(OC)cc2)S(=O)(=O)c2c(C)nn(C)c2C)cc1 | 2 | -2 | -3 | -7 | i | 8 | 4 | -8
CC(C)Cc1nnc(NC(=O)CCC(=O)N2CC(C)CC(C)C2)s1 (configuration not stated) | 12 | -4 | 0 | 2 | i | -10 | -9 | -4
Cc1ccc(OCCn2c(CCCO)nc3ccccc32)cc1 | 3 | 8 | 1 | 0 | i | 17 | 6 | -13
CCN(CC)CCCN1C=C2C(=O)C(C)(OC(=O)C3CCCC3)C(=O)C=C2C=C1c1ccsc1 (configuration not stated) | -8 | 29 | -6 | 8 | i | 3 | 33 | -7
O=C(N/N=C/c1cccnc1)C1CCCN(S(=O)(=O)c2ccccc2)C1 (configuration not stated) | x | -2 | 1 | 3 | i | -1 | -8 | -18
NC(=O)c1oc2ccccc2c1NC(=O)c1nc2ccccc2s1 | x | 7 | 12 | 7 | i | 7 | 0 | -6
Cc1ccsc1C(=O)OCC(=O)c1cc2ccccc2o1 | x | -14 | -3 | 3 | i | -2 | -6 | -15

Structural class: the entries above containing a CF3 group (2)
SMILES | Env fusion inh | eIF4H inh | MT1-MMP act inh | MT1-MMP act inh RFP | Rce1 inh | CSC inhib | PABP FP inh | UUG fidelity | others
Cc1c(NC(=O)c2cnn3c2NC(c2ccc(Br)cc2)CC3C(F)(F)F)c(=O)n(-c2ccccc2)n1C (configuration not stated) | 23 | -8 | 5 | -3 | i | 4 | -2 | -8
FC(F)(F)c1ccc2nnc(-c3c(Cl)cccc3Cl)n2c1 | 51 | -4 | -6 | -2 | i | 9 | 1 | -7

(further entries)
SMILES | Env fusion inh | eIF4H inh | MT1-MMP act inh | MT1-MMP act inh RFP | Rce1 inh | CSC inhib | PABP FP inh | UUG fidelity | others
NC(=O)c1ccc(NC(=S)NCc2ccco2)cc1 | 11 | -4 | 2 | 3 | i | -14 | 2 | x
CC1=NN(c2ccc(Cl)c(C(=O)O)c2)C(=O)C1 | -10 | 9 | 2 | 3 | i | -4 | -5 | x
COc1cccc(S(=O)(=O)NCc2ccc(C(=O)N3CCN(c4ccccc4OC)CC3)cc2)c1 | 16 | -16 | 2 | -1 | x | -9 | -12 | 3
CC(=O)c1ccc(N2CCN(C(=O)c3ccc(Cl)c(S(=O)(=O)NC4CC4)c3)CC2)c(F)c1 | -18 | x | 0 | -1 | x | x | x | -5
COc1ccccc1/C=C/C(=O)Nc1nc(N)n(-c2ccccc2)n1 | 3 | -6 | 4 | 5 | i | 5 | 3 | x
CN1C(=O)CC(n2c(CO)nc3ccccc32)C1=O (configuration not stated) | x | -2 | 9 | 12 | x | 3 | 0 | -5
CCC(=O)N1c2ccc(S(=O)(=O)CCC(=O)NCCC3=CCCCC3)cc2CC1C (configuration not stated) | x | 0 | 0 | 1 | i | -6 | -2 | -6
CCn1cc(CNC(=O)/C=C/c2ccc([N+](=O)[O-])cc2)c(C)n1 | 1 | 4 | 7 | -4 | i | -10 | 5 | -6
CC(=O)NNS(=O)(=O)c1scc(S(=O)(=O)c2ccc(Cl)cc2)c1C | -26 | 6 | 1 | 2 | i | -1 | 9 | 4
c1cncc(-c2nnc3n2N=C(c2cccs2)CS3)c1 | -51 | 6 | 6 | 1 | i | 7 | 9 | -6
CCCNC(=O)c1onc(CSc2ccc(F)cc2)c1C(=O)NCCOC | -9 | x | 0 | 3 | i | -22 | x | -14
S=C(NCC1CCCO1)Nc1cc(Cl)c(Cl)cc1Cl (configuration not stated) | 1 | -1 | -1 | 3 | i | -9 | -2 | -38
NC(=S)NC1CC2CC1C1C=CCC21 (configuration not stated) | 20 | -4 | 1 | 5 | i | -18 | 10 | x
O=C(COc1ccccc1)NCc1nnc(SCC(=O)Nc2nccs2)n1-c1ccccc1 | 8 | 2 | -2 | -1 | i | -10 | 2 | 2
O=C(Cn1cnc2ccccc2c1=O)Nc1ccc(S(=O)(=O)N2CCOCC2)cc1 | 6 | -2 | 2 | 1 | i | 2 | 18 | x
CCN1/C(=C2\C(=O)N(C)C(=S)N2C)C=Cc2ccccc21 | -281 | 4 | 4 | 3 | i | x | 6 | x
CCOC(=O)C1CCN(c2c(Nc3ccc(C)c(C)c3)c(=O)c2=O)CC1 | 6 | -1 | 13 | -1 | i | -10 | 1 | 4
COc1ccccc1CNC(=S)NCCc1ccccc1 | -6 | 10 | 2 | 3 | i | -13 | 15 | -16
CC(=O)Oc1ccccc1-n1c(C)nc(=O)c(-c2ccccc2)c1C | 7 | -7 | 6 | 0 | i | -8 | -8 | -12
NC(=O)CSc1nc2ccccc2n1-c1ccccc1 | x | -1 | -3 | -4 | i | -2 | -3 | -23
COc1ccc(/C=C/C(=O)c2ccccc2)cc1COc1ccc(F)cc1 | x | -2 | -6 | -12 | i | 29 | -12 | x

Ordered by number of heavy atoms (rising): some entries from above.
SMILES | Env fusion inh | eIF4H inh | MT1-MMP act inh | MT1-MMP act inh RFP | Rce1 inh | CSC inhib | PABP FP inh | UUG fidelity | others
S=C(NCC1CCCO1)Nc1cc(Cl)c(Cl)cc1Cl (configuration not stated) | 1 | -1 | -1 | 3 | i | -9 | -2 | -38
COc1ccccc1CNC(=S)NCCc1ccccc1 | -6 | 10 | 2 | 3 | i | -13 | 15 | -16
CC(=O)Oc1ccccc1-n1c(C)nc(=O)c(-c2ccccc2)c1C | 7 | -7 | 6 | 0 | i | -8 | -8 | -12
COc1ccc(/C=C/C(=O)c2ccccc2)cc1COc1ccc(F)cc1 | x | -2 | -6 | -12 | i | 29 | -12 | x

High-throughput results (PubChem BioAssay)
